Screening data: PubChem, National Center for Advancing Translational Sciences (NCATS)
Vaccinia mCherry: qHTS for Stage-Specific Inhibitors of Vaccinia Orthopoxvirus: mCherry Reporter Primary qHTS; Vaccinia virus mCherry reporter infection, fluorescence; about a quarter of the inactives have no number; Potency, µM (highest dose often 36.5 µM), for the others: at the highest dose activity change, negative = inhibition, actives largely listed as inhibitors; 0.63% of 310,000 active; AID 720579, 2013; active = well fitted inhibition curve with a large enough effect; inconclusive = small, poorly fitted or top-dose-only effect; inactive = no such curve, though single readings can be large or run the other way; tested in A549 cells; further: nearly all actives have a fitted effect of over 35% in size; inactives centre near -10
VACV Venus inh: qHTS for Stage-Specific Inhibitors of Vaccinia Orthopoxvirus: Venus Reporter Primary qHTS | Potency, µM (doses to about 36.5 µM), inactives show at the highest dose activity change, negative = inhibition, hits mostly inhibitors | 0.46% of 330,000 active | Vaccinia virus Venus reporter expression, fluorescence; active means well fitted inhibition curve with a large enough effect; inconclusive means small, poorly fitted or top-dose-only effect; inactive means no such curve, though single readings can be large or run the other way; tested in A549 cells; further: nearly all actives have a fitted effect of over 30% in size; inactives centre near -10
Active calls of the source: *; i = inactive; ? = inconclusive; / = not tested or not shown; & = joins results of further samples; [ ] = another dose, or the depositor's remark. On the % scale 0 is the no-effect control and ±100 the full control effect; potency means the concentration at half of the fitted maximal effect. Random draw from the library. About 0.86% of those tested had a hit in this group.

molecule	VACV Venus inh	Vaccinia mCherry
Clc1ccc(OCCn2cnc3ccccc32)cc1	-27%	-27%
CC1CCCCN1C(=S)NCc1ccccc1 (configuration not stated)	-7%	-13%
COc1cccc(CN=C2Nc3ccccc3CS2)c1	-13%	0%
COc1ccc(CN2CCN(Cc3c[nH]c4ccccc34)CC2CCO)c(F)c1 (configuration not stated)	-12%	-7%
Cn1c(/N=C/c2cccs2)nc2ccccc21	4%	-6%
Cc1cccc2sc(N3CCN(C(=O)CS(=O)(=O)c4ccc(F)cc4)CC3)nc12	-24%	-22%
O=C(NCc1ccco1)c1cccc2c1C(=O)c1ccc(N3CCC(Cc4ccccc4)CC3)cc1S2(=O)=O	13%	i
Cc1cc(/C=N/n2c(COc3ccccc3)nc3ccccc3c2=O)c(O)c([N+](=O)[O-])c1	?	28µM*
COC(=O)c1ccc(/C=N/NC(=S)NCCN2CCOCC2)cc1	-10%	i
O=C(O)c1c2c(nc3ccccc13)/C(=C/c1cccc([N+](=O)[O-])c1)CCC2	-3%	-4%
CCC(C)Sc1ccc([C@@H]2[C@H]3C(=O)N(CC)C(=O)[C@H]3[C@]3(C(=O)OC)CCCN23)cc1OC (some centres not stated)	-15%	-23%
Oc1c(C(c2ccccc2)N2CCC(O)CC2)sc2nc(-c3ccco3)nn12 (configuration not stated)	-10%	-17%
N#Cc1ccccc1NC(=O)CSc1nc(-c2ccccc2)cc(C(F)(F)F)c1C#N	-18%	-18%
COc1cc(Cl)c(NS(=O)(=O)c2ccc(-c3coc(C)n3)cc2)c(OC)c1	-10%	-23%
CC(=O)Nc1nnc(SCC(=O)NCCOc2ccccc2)s1	-11%	/
Cc1ccc(NC(=O)c2cc(S(=O)(=O)N3CCCCC3)ccc2N2CCOCC2)c(C)c1	-15%	-9%
CN(C)CCNC(=O)CNC(=S)N(Cc1ccccc1)Cc1ccccc1F	0%	1%
COC(=O)Cc1[nH]nc2c1C(c1ccc(O)c(OC)c1)C(C#N)=C(N)O2 (configuration not stated)	-5%	-16%
COc1ccc(O)c(/C=N/NC(=O)c2cccc(N3CCCC3=O)c2)c1	-16%	2.5µM*
COC(=O)c1ccc(Oc2nc(NC(C)C)nc(NC(C)C)n2)cc1	13%	i
CCCCNC(=O)c1onc(CSc2cc(C)cc(C)c2)c1C(=O)O	-9%	i
Cc1sc(-n2c(C)cc(/C=N/n3cnnc3)c2C)c(C#N)c1C	-22%	-29%
Cc1ccc(/C=N/NC(=O)c2cccc(NC(=O)c3ccccc3Cl)c2)o1	20%	-18%
Cc1ccc(C)c(Cn2c3ccccc3c3cnn(CC(=O)NCc4ccccn4)c(=O)c32)c1	0%[7.34 µM]	i[7.34 µM]
Cc1cccc(C)c1NC(=O)CNC(=O)c1ccncc1	-9%	i
Cc1ccc(NC(=O)C2(C)Cc3ccccc3C(=O)O2)cc1 (configuration not stated)	-3%	-10%
CCCN1CCC(NC(=O)Nc2ccccc2C(=O)OC)CC1	-8%	-5%
CCc1cc(=O)oc2cc(C)cc(OC(C)C(=O)NCc3ccncc3)c12 (configuration not stated)	-3%	-12%
Cc1cccc(S(=O)(=O)N2C[C@@H](O)COC[C@@H]3O[C@H](CC(=O)NCCCN4CCOCC4)CC[C@H]32)c1	2%	-3%
CCNC(=S)N/N=C1\CCCCc2ccccc21	-22%	-10%
CCCc1cc(=O)[nH]c(SCC(=O)Nc2sc3c(c2C#N)CCC(C)C3)n1 (configuration not stated)	-24%	-4%
Cc1ccccc1CSc1nnc(-c2ccncc2)o1	?	i
N#Cc1c(C(F)(F)F)cc(C2CC2)nc1N1CCCC1	-21%	/
CCOC(=O)c1cc(CC)sc1/N=C/C1=C(O)CC(C)(C)CC1=O	-14%	-14%
OCCN1CCN(Cc2ccc3c(c2)CN(Cc2cccn2-c2ccccn2)CCO3)CC1	-13%	-10%
Cc1ccc(S(=O)(=O)NC(=O)c2ccc(Br)o2)c(C)c1	-11%	i
Cc1ccc(NC(=O)c2sc3nc(C)cc(C)c3c2N)cc1	-23%	-21%
Cn1nc(-c2ccc(Cl)cc2)c2cc(C(=O)NCC3CCCO3)sc21 (configuration not stated)	-12%	i
Cc1cccc(NC(=O)c2ccc(OCc3c(C)noc3C)cc2)c1	-18%	?
COc1ccccc1OCc1csc(N)n1	-15%	-13%
CCC(=O)N1CCN(c2ccc(NC(=S)NC(=O)c3ccc(OC)c([N+](=O)[O-])c3)cc2)CC1	-15%	?
NC1=NC2(CCCCC2)N(c2ccc(F)cc2F)C(N)=N1	-9%	i
COC(=O)CCc1ccc(OCC(O)CNC(C)C)cc1 (configuration not stated)	-18%	i
CC1(C(=O)NC2CCCCCCC2)CCC(=O)N1Cc1ccco1 (configuration not stated)	-7%	-12%
Cc1noc(C)c1COc1ccccc1C(=O)NCCc1ccc(Cl)cc1	-12%	i
COc1ccccc1NC(=S)N(Cc1ccco1)Cc1cc2ccc(C)c(C)c2[nH]c1=O	?	?
CCn1c(Cc2ccc(OC)cc2)nnc1SCC(=O)Nc1ccc(N2CCOCC2)cc1	-3%	-21%
CCc1nnc(NC(=O)C(c2ccccc2)c2ccccc2)s1	-18%	-7%
Cc1[nH]nc2c1C(c1ccco1)C(C#N)=C(N)O2 (configuration not stated)	-11%	i
O=C(C1CCN(S(=O)(=O)c2cccnc2)CC1)N1CCCCC1	0%	i
O=C(Cc1ccccc1)NCC1COc2ccccc2O1 (configuration not stated)	-12%	?
CCN(CC(=O)NC(C)(C)C)C(=O)c1ccccc1SCC(=O)NC1CCCCCCC1	-16%	-6%
O=C1NC(=O)C([N+](=O)[O-])=C(O)C1=O	-13%	i
CCc1ccccc1NC1=NCC(=O)N1Cc1ccc2c(c1)OCO2	-18%	-18%
COC(CN1C(=O)C(O)=C(C(C)=O)C1c1ccccn1)OC (configuration not stated)	-6%	-12%
CCOC(=O)COc1ccc(C(=O)c2ccccc2)c(O)c1	-9%	-16%[1.46 µM]
Cc1ccc(CN2CCNC(=O)C2CC(=O)N(C)CCc2ccccc2)cc1 (configuration not stated)	-6%	?
Cc1nc2n(c(=O)c1CCN1CCC(c3noc4cc(F)ccc34)CC1)CCCC2	-10%&-18%	-17%
Cc1ccc(C(C)C)c(OCCSc2nc3ccccc3n2CC(O)CO)c1 (configuration not stated)	-14%	-12%
O=C(CSc1nc2sc3c(c2c(=O)[nH]1)CCCC3)NCCO	-6%	-11%

Later entries:
molecule	VACV Venus inh	Vaccinia mCherry
COc1ccc(OCC(=O)N/N=C(\C)c2cc3ccccc3o2)cc1	-23%	-20%
O=C(CSc1ccc(F)cc1)Nc1cccc(S(=O)(=O)N2CCOCC2)c1	-8%	-9%
CCc1ccc(/C=C2\SC(=S)N(CCCC(=O)N(CCO)c3ccccc3)C2=O)cc1	?	?
CSc1ncccc1C(=O)OCC(=O)NC1CCCC1	-5%	-16%
Cc1ccc(-c2nc(CN(C)C3CCOC3)c(C)o2)s1 (configuration not stated)	-2%	i
Cc1nc2cc(NS(=O)(=O)c3ccccc3F)ccc2s1	-10%	-20%
O=C(c1ccncc1)c1ccc(N2CCN(C3CC(=O)N(Cc4ccccc4)C3=O)CC2)cc1 (configuration not stated)	?	/
Cc1ccc(NC(=O)CN(C)C(=O)c2cccc(-n3cccc3)c2)cc1	-13%	-28%
Cc1ccc(-c2nn3c(-c4ccccc4C)nnc3c3ccccc23)cc1	-17%	-23%
CCCCCn1c(=O)[nH]c2cc(C(=O)N3CCN(c4cccc(C(F)(F)F)c4)CC3)ccc2c1=O	-9%	-9%
COCCNC(=O)c1cccc2c(-c3cccc(C(N)=O)c3)coc12	4%	18%
CCn1nc(NC(=O)c2ccncc2)c2cc3cc(C)ccc3nc21	-25%	-8%
COC(=O)C[C@@H]1CC[C@@H](NC(=O)Nc2cc(F)ccc2F)[C@@H](CO)O1	-2%	13%
O=C(CCCCn1c(=O)c2ccccc2n(CC(=O)Nc2ccccc2)c1=O)NCc1ccco1	-12%	/
O=C(COc1ccc(F)cc1F)NNC(=O)Nc1cccc([N+](=O)[O-])c1	-18%	-1%

Grouped by structure, the entries above containing a nitro group on carbon
molecule	VACV Venus inh	Vaccinia mCherry
Cc1cc(/C=N/n2c(COc3ccccc3)nc3ccccc3c2=O)c(O)c([N+](=O)[O-])c1	?	28µM*
O=C(O)c1c2c(nc3ccccc13)/C(=C/c1cccc([N+](=O)[O-])c1)CCC2	-3%	-4%
CCC(=O)N1CCN(c2ccc(NC(=S)NC(=O)c3ccc(OC)c([N+](=O)[O-])c3)cc2)CC1	-15%	?
O=C1NC(=O)C([N+](=O)[O-])=C(O)C1=O	-13%	i
O=C(COc1ccc(F)cc1F)NNC(=O)Nc1cccc([N+](=O)[O-])c1	-18%	-1%

The results go on.
molecule	VACV Venus inh	Vaccinia mCherry
COc1ccccc1-c1c(C(F)(F)F)oc2c(CN3CCCCC3C)c(O)ccc2c1=O (configuration not stated)	-1%	-9%
Cn1c(=O)c2ccccc2n(Cc2cccc(F)c2)c1=O	-20%	-15%
Cc1cc(C(=O)NCc2ccccc2Cl)c2c(C)nn(-c3cccc(F)c3)c2n1	-6%	0%
COc1ccc(C2CC(=O)N3CN(C4CCCCC4)CSC3=C2C#N)c(OC)c1 (configuration not stated)	4%	-8%
Cc1cc(S(=O)(=O)N2CCOCC2)ccc1OCC(=O)N1CCCCC1	3%	-15%
O=C(NC(=S)Nc1ccc(N2CCOCC2)cc1)c1cccs1	-13%	-10%
CCSc1nc2ccc(N3C(=O)C4C5C=CC(C5)C4C3=O)cc2s1 (configuration not stated)	-16%	-14%
NC(=O)Nc1ccc(Oc2c(F)c(F)c(F)c(F)c2F)cc1	-26%	/
CC(C)c1ccc(NC(=O)CSC2=Nc3ccccc3C3=NC(CC(=O)NC4CCCCC4)C(=O)N23)cc1 (configuration not stated)	-20%	-12%
COc1ccccc1C(=O)NC(CCSC)C(=O)NNC(=O)c1ccc(F)cc1 (configuration not stated)	-20%	-29%
CCn1cc(CN2CCC(C(=O)Nc3cccc(-c4cccc(OC)c4)c3)CC2)c(C)n1	-12%	-6%
O=C(CCNC(=O)c1ccc([N+](=O)[O-])cc1)NCc1cccs1	-7%	-16%
CCOC(=O)Cc1csc(NC(=O)Nc2cccc(OC)c2)n1	-15%	-21%
c1ccc(-c2nnc(-c3c[nH]c4ccccc34)nc2-c2ccccc2)cc1	?	/
COc1ccc(C(O)c2nc(-c3cccc(C(C)C)c3)cs2)cc1 (configuration not stated)	-12%	i
CC(C)[N+]1(C)[C@@H]2CC[C@H]1CC(OC(=O)C(CO)c1ccccc1)C2 (some centres not stated)	-12%&-10%&-13%	-3%&-17%
COC(=O)C1(Cc2cc(-c3ccc(OC)cc3OC)no2)CCN(C(=O)OC(C)(C)C)CC1	-13%	i
COc1ccc(CCNC(=O)CCc2ccc(S(=O)(=O)NCC(C)C)cc2)cc1	-5%	-11%
CN1C(=O)CC(NNC(=O)c2ccccc2)C1=O (configuration not stated)	-7%	-15%
CN1C(=O)N(C)C(=O)C(CCc2ccccn2)(CCc2ccccn2)C1=O	-7%	/
COCCCn1c(=O)c2sccc2n2c(CCCC(=O)NCc3ccccc3)nnc12	-12%	-12%
N#C/C(=C\c1ccc(N2CCCCC2)o1)C(N)=O	-4%	?
CCN(CC)Cc1c(O)ccc2occ(C(=O)c3ccc(OC)cc3)c12	-26%	/
CC(C)c1ccc(S(=O)(=O)/N=C2/C=C(Sc3ncn[nH]3)C(=O)c3ccccc32)cc1	?	11µM*
CC(=O)Nc1c([N+](=O)[O-])cc(C)c(Cl)c1[N+](=O)[O-]	-27%	?
CCOc1cc(-c2ccc(OC(=O)c3ccc(Cl)cc3)c(OC)c2)cc(=O)c2c(C)oc(C)c12	-7%	-7%
CC(C)Oc1ccc(N2CC(C(=O)Nc3ccc(N4CCOCC4)cc3)CC2=O)cc1 (configuration not stated)	-12%	-7%
CCCc1cc(=O)oc2cc(C)cc(OCC(=O)N[C@@H](CSCc3ccccc3)C(=O)O)c12	4%	1%
Cc1ccnc(NC(=O)CNC(=O)COc2ccccc2)c1	-4%	-10%
CC(=O)Nc1c(C)cc(OCC(=O)O)cc1C	-19%	i
CCCN1CCN(CCCNC(=O)c2ccc(NC(=O)C3=C(C)OCCS3)cc2)CC1	-18%[7.34 µM]	-8%[7.34 µM]
CCn1c2ccccc2c2nnc(SCC(N)=O)nc21	-3%	-11%
CC(=O)c1ccc(NCCC(=O)c2ccccc2)cc1	-5%	-25%
COc1cccc(C(c2nnnn2C(C)(C)C)N2CCN(C3CCCCC3)CC2)c1OC (configuration not stated)	-3%	-12%
CCC(=O)N1CCc2cc(Br)cc(S(=O)(=O)CCC(=O)N3CCN(c4ccccc4OC)CC3)c21	-9%	-14%
